# Assay outcomes as filed in PubChem BioAssay.
# GIRK2 activ: opens human GIRK2 potassium channels; AID 1259325; HEK293-GIRK2 thallium flux, Thallos fluorescence; actives 0.05% (n = 63,000); calls only for hits at 25 µM; P48051;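 active = among the strongest 0.2% of first-round signals and kept after retests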;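 note: first round at about 10 µM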
# Target sequence (P48051 whole entry, looked up): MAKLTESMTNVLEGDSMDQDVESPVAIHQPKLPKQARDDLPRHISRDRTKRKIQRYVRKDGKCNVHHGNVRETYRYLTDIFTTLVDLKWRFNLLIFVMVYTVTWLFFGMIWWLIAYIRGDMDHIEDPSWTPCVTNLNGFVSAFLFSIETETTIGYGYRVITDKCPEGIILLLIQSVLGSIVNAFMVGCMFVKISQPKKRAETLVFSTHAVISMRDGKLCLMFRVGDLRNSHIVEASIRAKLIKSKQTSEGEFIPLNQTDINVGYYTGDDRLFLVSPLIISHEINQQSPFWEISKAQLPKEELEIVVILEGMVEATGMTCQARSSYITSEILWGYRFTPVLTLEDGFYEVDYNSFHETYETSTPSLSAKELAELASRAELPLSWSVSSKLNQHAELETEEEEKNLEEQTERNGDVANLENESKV
# Calls only; i = inactive. Only part of the results is shown; the hit share may differ from the screen's.
SMILES,GIRK2 activ
Cc1sc(NC(=O)c2cccc(F)c2)nc1-c1ccc2c(c1)NC(=O)CO2,i
O=C(O)c1ccccc1-c1ccccc1C(=O)Nc1ccc2c(c1)OCO2,i
N#Cc1ccccc1Cn1c(=O)n(CCC(=O)NCc2ccc3c(c2)OCO3)c(=O)c2ccccc21,i
Cc1ccccc1Oc1ccc(S(=O)(=O)N2CCN(C)CC2)cc1,i
O=C(CN1CCCC(c2nc3ccccc3[nH]2)C1)Nc1ccc(C(F)(F)F)cc1 (centres undefined),i
O=S(=O)(Cc1ccccc1)NCCC(O)c1cccc2ccccc12 (centres undefined),i
CCCc1nnsc1C(=O)Nc1nc2c(s1)CN(S(C)(=O)=O)CC2,i
CC(Cc1cccs1)NC(=O)c1cc(Br)ccc1Cl (centres undefined),i
O=C(c1ccc(F)cc1)N(CCCn1ccnc1)c1nc2ccc(Cl)cc2s1,i
COc1cccc(S(=O)(=O)Nc2ccc(C(=O)NCCc3ccc(OC)c(OC)c3)cc2)c1,i
CCOc1ccc(-c2noc(Cn3cnc4c(nnn4Cc4cccc(C)c4)c3=O)n2)cc1OC,i
CCOC(=O)N1CCc2c(sc(NC(=O)c3cccs3)c2-c2nc3ccccc3s2)C1,i
O=C(NC1CCN(C(=O)c2cn(-c3cccc(Cl)c3)nn2)CC1)c1ccc(F)cc1,i
COc1ccc(-c2nc(C#N)c(N3CCN(C(=O)c4cccc(Cl)c4)CC3)o2)cc1,i
CCCCCCCCCSCCCCCCCC(=O)O,i
COc1ccc(Cl)cc1C(=O)N1CC(c2nc(C3CC3)no2)C1,i
O=C(NCC(F)(F)F)c1cc(OCc2ccccc2)no1,i
Cc1cccc(-c2csc3c(=O)[nH]c(N4CCC(C(=O)NCCN5CCOCC5)CC4)nc23)c1,i
COCCNC(=O)CCc1csc2nc(C3CC3)cn12,i
CN(C)S(=O)(=O)c1ccc(C(=O)N2CC(c3nc(-c4ccco4)no3)C2)cc1,i
O=C(c1ccc([N+](=O)[O-])o1)N1CCN(c2ncnc3c2nnn3-c2ccc(F)cc2)CC1,i
O=C(Nc1cnccn1)c1ccc(Cl)c(S(=O)(=O)N2CCOCC2)c1,i
CCc1cc(CC)n(-c2nc3c(c(=O)n(CC(N)=O)c(=O)n3C)n2Cc2ccccc2C)n1,i
O=C(NCCCOc1cccc2cccnc12)c1ccno1,i
COc1ccc(S(=O)(=O)Nc2ccc(C(=O)Nc3sc4c(c3C(N)=O)CCCC4)cc2)cc1,i
# (more compounds)
SMILES,GIRK2 activ
Cc1ccc2nc(C3CN(C(=O)NCCCc4ccccc4)C3)[nH]c2c1,i
COc1ccc(SCC2CCN(C(=O)COc3ccccc3C)CC2)cc1,i
Cc1ccc2oc(=O)c(-c3nc(-c4cccnc4)no3)cc2c1,i
COc1ccc(N2CCN(CC(=O)NCC(F)(F)F)C2=O)cc1,i
COc1ccc(OC)c(C2NC(=S)NC(C)=C2C(=O)Nc2ccc(C)c(C)c2)c1 (centres undefined),i
COc1ccc(/C=C2\Oc3c(cc(COC(C)=O)c(OC(C)=O)c3C)C2=O)cc1OC,i
O=C(NCCn1ncc2c(NCc3ccco3)ncnc21)c1cc(-c2ccccc2)on1,i
COc1ccc(C(=O)NCCN2CCN(c3ccc(F)cc3)CC2)cc1OC,i
Cc1noc(CNC(=O)CCS(=O)(=O)c2ccccc2)n1,i
Cc1ccc(S(=O)(=O)c2nc(SCC(=O)N3CCOCC3)sc2N2CCOCC2)cc1,i
COCCN(Cc1ccoc1)C(=O)c1cccc(OC)c1,i
Cc1ccc(-c2cc(C(=O)N3CCC(NC(=O)C4CCCCC4)CC3)[nH]n2)c(C)c1,i
CCOc1ccccc1NC(=O)CSc1cnnn1-c1ccccc1C(F)(F)F,i
COc1ccc(CCNC(=O)c2[nH]c3ccccc3c2NC(=O)c2ccc(C)cc2)cc1OC,i
COc1ccc(NC(=O)Nc2ncc(C#N)s2)cc1,i
CCOc1ccc(N(C)S(=O)(=O)c2ccsc2C(=O)NCc2cccs2)cc1,i
CCS(=O)(=O)c1ccc(-c2nnc(NC(=O)Nc3ccccc3F)o2)cc1,i
CC(=O)c1sc(NC(=O)C2CCN(S(=O)(=O)c3ccc(Cl)cc3)CC2)nc1C,i
O=C(O)c1cn[nH]c1S(=O)(=O)N1CCc2ccccc2C1,i
CCN(CC)C(=O)Oc1ccc2c(c1)O/C(=C\c1cccc(OC)c1OC)C2=O,i
CCOC(=O)c1ccccc1NC(=O)Cn1c(C)cc(C)c(-c2nc(-c3ccccc3)no2)c1=O,i
Cc1cc(C)n(-c2cc(SCC(=O)Nc3cccc(Cl)c3)ncn2)n1,i
CCOc1ccc(-c2nc(Cn3nnc(C(=O)Nc4cccc(OC)c4)c3N)c(C)o2)cc1,i
Cc1cc(C)n(-c2ccc(C(=O)NC3CC3)nn2)n1,i
O=C(CN1C(=O)CCC1=O)N1CCC(S(=O)(=O)Cc2ccco2)CC1,i
# The results go on:
SMILES,GIRK2 activ
CN(C)c1ncc(NC(=O)Cc2c[nH]c3ccccc23)cn1,i
CCC(C)C(NC(=O)c1cccc(Cl)c1)C(=O)Nc1nc2ccccc2[nH]1 (centres undefined),i
CC(=O)SCC(=O)N=c1sc2cc(F)ccc2n1C,i
O=C(N1CCCCCC1)N1CCNCC1,i
O=CC1=Cc2cc(Cl)ccc2OC1,i
O=S(=O)(c1ccc(Cl)cc1)N1CCN(c2cc(-n3cccc3)ncn2)CC1,i
COc1ccc(-c2cc3c(=O)n(CC(=O)Nc4ccc(C)cc4Br)ccn3n2)cc1OC,i
CN1CCOc2ccc(NC(=O)c3ncc(-c4ccccc4)o3)cc2C1=O,i
Cc1cc(NC(=O)CCCc2ccccc2)n(-c2nc3c(cnn3-c3ccc(Cl)cc3)c(=O)[nH]2)n1,i
COc1ccc(C)cc1N1CCCn2c1nc1c2c(=O)n(Cc2ccccc2)c(=O)n1C,i
Cc1ccc(Cl)cc1NC(=O)CSc1cc(N2CCN(c3ccccc3F)CC2)ncn1,i
O=C(c1c[nH]c2ccccc12)N1CCN(CC(O)c2ccco2)CC1 (centres undefined),i
Cc1ccc(C(=O)NCc2nc3ccccc3[nH]2)cc1,i
COc1ccc(CC(=O)Nc2ccc(-n3nnc(C(=O)N4CCCC4)n3)cc2)cc1OC,i
COCCCNC(=O)c1c(N)n(/N=C\c2cccc(O)c2)c2nc3ccccc3nc12,i
COCCn1c(N2CCN(Cc3cccc4ccccc34)CC2)nc2c1c(=O)[nH]c(=O)n2C,i
CCCn1c(=O)c2ccc(C(=O)NC3CCCCC3)cc2n2c(SCC(=O)NC(C)C)nnc12,i
CC(=O)c1ccc(N2CCN(C(=O)c3[nH]c4ccccc4c3NC(=O)c3ccc(C)cc3)CC2)cc1,i
CC(C)(C)NC(=O)N1CCC(CNC(=O)CC(CC(=O)O)c2cccs2)CC1 (centres undefined),i
COc1ccccc1NC(=O)CCCSc1ccc(NC(=O)c2cccs2)nn1,i
CCOC(=O)c1c(NCC2CCCO2)c2ccc(Cl)cc2[nH]c1=O (centres undefined),i
O=C(NCCOc1ccccc1)c1ccc(Cl)c([N+](=O)[O-])c1,i
COc1cccc(CNC(=O)C2CCN(c3cc(Oc4ccccc4)ncn3)CC2)c1,i
O=C1c2oc3ccc(F)cc3c(=O)c2C(c2cccc(F)c2)N1c1ccccn1 (centres undefined),i
O=S(=O)(/C=C/c1ccccc1)NCC1COC2(CCCCC2)O1 (centres undefined),i

# Among those listed so far, these contain a thiophene ring, fused or not.
SMILES,GIRK2 activ
CC(Cc1cccs1)NC(=O)c1cc(Br)ccc1Cl (centres undefined),i
CCOC(=O)N1CCc2c(sc(NC(=O)c3cccs3)c2-c2nc3ccccc3s2)C1,i
Cc1cccc(-c2csc3c(=O)[nH]c(N4CCC(C(=O)NCCN5CCOCC5)CC4)nc23)c1,i
COc1ccc(S(=O)(=O)Nc2ccc(C(=O)Nc3sc4c(c3C(N)=O)CCCC4)cc2)cc1,i
CCOc1ccc(N(C)S(=O)(=O)c2ccsc2C(=O)NCc2cccs2)cc1,i
CC(C)(C)NC(=O)N1CCC(CNC(=O)CC(CC(=O)O)c2cccs2)CC1 (centres undefined),i
COc1ccccc1NC(=O)CCCSc1ccc(NC(=O)c2cccs2)nn1,i

# An excerpt from above in order of number of heavy atoms, highest first:
SMILES,GIRK2 activ
Cc1ccc(Cl)cc1NC(=O)CSc1cc(N2CCN(c3ccccc3F)CC2)ncn1,i
COc1cccc(CNC(=O)C2CCN(c3cc(Oc4ccccc4)ncn3)CC2)c1,i
CCS(=O)(=O)c1ccc(-c2nnc(NC(=O)Nc3ccccc3F)o2)cc1,i

# More compounds follow:
SMILES,GIRK2 activ
N#Cc1nc(/C=C/c2ccc(Cl)cc2)oc1N1CCN(C(=O)c2cccs2)CC1,i
CC(C)COc1cccc(N2CCn3c2nc2c3c(=O)n(C)c(=O)n2C)c1,i
Cc1c(CNC(=O)Cn2cccc2)sc2nc(-c3ccc(F)cc3)cn12,i
COc1ccccc1-c1coc2c3c(ccc2c1=O)OCN(C(C)C)C3,i
COC(=O)c1ccccc1N=Nc1c(N)[nH]n(-c2ccccc2)c1=O,i
Cc1cc(=O)[nH]c(-n2nc(C)c(CCC(=O)Nc3nc4ccccc4s3)c2C)n1,i
CN(C)S(=O)(=O)c1ccc(C(=O)Nc2cccnc2)cc1,i
COc1cc(-c2noc(CSc3nc(C)c(C)c(=O)[nH]3)n2)cc(OC)c1OC,i
CCCCc1ccc(N2C(=NC(C)=O)SC3CS(=O)(=O)CC32)cc1 (centres undefined),i
Cn1c(SCCCNc2ccc(S(C)(=O)=O)cc2[N+](=O)[O-])nnc1-c1cccnc1,i
CC1CCN(C(=O)N2CCN(S(=O)(=O)c3ccccc3)CC2)CC1,i
Cc1ccc(-c2ccnc3c(C(=O)NCc4ccc(F)cc4F)cnn23)cc1C,i
CCOc1ccc(-c2ccc(SCc3nc(-c4cccs4)no3)nn2)cc1,i
O=C(COc1cccc(C(F)(F)F)c1)N1CCN(c2cc(N3CCCCC3)ncn2)CC1,i
Cc1cc(OCCCCn2c(CO)nc3ccccc32)ccc1Cl,i
Cc1cc(C)n(-c2cc(N3CCN(C(=O)c4sc(C)nc4C)CC3)ncn2)n1,i
O=C(CN1C(=O)CCC1=O)NCc1cnn2ccccc12,i
CCNC(=O)Nc1ccc(-c2nc3ccccc3[nH]2)cc1,i
C[C@@H](C(=O)O)c1ccc(-c2ccccc2)c(F)c1,i
Cc1cccc(Cl)c1NC(=O)Cn1nc2cc(-c3ccccc3)nc(C)n2c1=O,i
COc1ccccc1N1CCN(CC(O)COCC2CC3CCC2C3)CC1 (centres undefined),i
Cc1ccc(C)c(NC(=O)Cn2cc(-c3nc(-c4ccc(Cl)cc4)no3)c(=O)c3ccc(C)nc32)c1,i
C=C1CCC2C(C)(C)CCC[C@]2(C)[C@H]1C/C=C(\CO)C(=O)C(=O)O (some centres undefined),i
O=C(CSC1CCCC1)N1CCN(C(=O)c2cnn3ccccc23)CC1,i
O=C(Cn1ccc2ccccc21)N1CCc2ccccc21,i

# The final 4 compounds of the part above are carried over, then new ones follow.
SMILES,GIRK2 activ
Cc1ccc(C)c(NC(=O)Cn2cc(-c3nc(-c4ccc(Cl)cc4)no3)c(=O)c3ccc(C)nc32)c1,i
C=C1CCC2C(C)(C)CCC[C@]2(C)[C@H]1C/C=C(\CO)C(=O)C(=O)O (some centres undefined),i
O=C(CSC1CCCC1)N1CCN(C(=O)c2cnn3ccccc23)CC1,i
O=C(Cn1ccc2ccccc21)N1CCc2ccccc21,i
COc1ccc(N/C=C(\C#N)c2nc(-c3ccc(Br)cc3)cs2)cc1OC,i
COc1ccc(NC(=O)c2c[nH]c3cc(F)cc(F)c3c2=O)cc1OC,i
CCCc1cnc2c(c1SCC(=O)NCc1ccccc1Cl)c(=O)n(C)c(=O)n2C,i
O=C(NCc1ccc(C(=O)c2cccs2)s1)c1ccc(OC(F)(F)F)cc1,i
COc1ccc(-c2cc3c4nn(CC(=O)Nc5ccc(OC)cc5OC)c(=O)n4ccn3n2)cc1,i
C[C@]12C=CC(=O)C=C1CC[C@@H]1[C@@H]2C(=O)C[C@@]2(C)[C@H]1CC[C@]2(O)C(=O)CO,i
CN(Cc1ccccc1)c1nc2c(c(=O)n(C)c(=O)n2C)n1CC(O)COc1ccc(Cl)cc1 (centres undefined),i
COC(=O)c1ccsc1NC(=O)c1cnn2c1OCCC2,i
COc1cccc(NC(=O)N2CCN(c3nc4c(F)cccc4s3)CC2)c1,i
CCSc1ccccc1C(=O)Nc1ccc(-n2nnn(CC(=O)NC3CC3)c2=O)cc1,i
O=C(c1cccc(F)c1)N(C(=O)N1CCCCC1)c1ccccc1,i
Cc1nc(-n2nc(-c3cccs3)cc2NC(=O)c2ccccc2F)[nH]c(=O)c1Cc1ccccc1,i
CCCn1c(=O)c2ccc(C(=O)NC3CCCC3)cc2n2c(SCC(=O)NC(C)C)nnc12,i
COC(=O)c1ccc(-c2csc(NC(=O)c3cc(C)no3)n2)cc1,i
CSCC(C)(O)CNC(=O)Nc1cccc(C(F)(F)F)c1 (centres undefined),i
CCOC(=O)c1ccccc1NC(=O)CN1CCN(Cc2nc3ccccc3[nH]2)CC1,i
O=C(NCc1cccs1)c1coc(NC(=O)c2cnccn2)n1,i
CNC(=O)CSc1nc2c(c(=O)[nH]c(=O)n2C)n1C(C)C,i
CC1(C)CC(O)CC(C)(C)N1CC(O)COc1ccc(Br)cc1Br (centres undefined),i
COc1ccc(CN2COc3ccc4c(=O)c(-c5ccccc5OC)coc4c3C2)cc1OC,i
COc1cccc(NC(=O)N2CCN(c3nc4c(C)ccc(C)c4s3)CC2)c1,i
O=C(Nc1c(C(=O)c2ccc3c(c2)OCO3)oc2ccccc12)c1ccco1,i
COc1ccc(CCC(=O)NCC2CCN(C(=O)Oc3ccccc3)CC2)cc1,i
Cc1cccc(OCC(=O)Nc2ccc3c(c2)N(CCC(C)C)C(=O)C(C)(C)CO3)c1,i
Cc1ccc(NC(=O)CSc2cc(-c3nc(C4CC4)no3)ccn2)cc1F,i
# Later entries:
SMILES,GIRK2 activ
O=C(c1csc(-c2ccccc2)n1)N1CCC(Oc2cnccn2)CC1,i
CC1=C(C(=O)O)N2C(=O)[C@@H](NC(=O)[C@H](N)c3ccccc3)[C@H]2SC1,i
CCc1ccc(OCCCn2c(C(C)O)nc3ccccc32)cc1 (centres undefined),i
COc1ccc(CCC(=O)NCCCN2CCN(c3ccccc3)CC2)cc1,i
COC(=O)c1cn(Cc2ccc(C)cc2)nc1S(=O)(=O)N1CCC(C)CC1,i
Cc1cc(C)c(S(=O)(=O)NCCn2ncccc2=O)cc1C,i
